Bioassay records from PubChem.
ID4 binder – ID4 (human) binding; P47928; small molecule microarray, Flag-ID4 binding, fluorescence F/B; calls only; actives 1.2% (n = 31,000); AID 624137;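 active = spot signal over background at p below 0.07 in all four prints; compounds were printed on slides so no solution concentration is given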;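 note: a binder raises fluorescence above local background on the spot; about 2 pmol printed per array spot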
Target sequence (P47928 whole entry, looked up): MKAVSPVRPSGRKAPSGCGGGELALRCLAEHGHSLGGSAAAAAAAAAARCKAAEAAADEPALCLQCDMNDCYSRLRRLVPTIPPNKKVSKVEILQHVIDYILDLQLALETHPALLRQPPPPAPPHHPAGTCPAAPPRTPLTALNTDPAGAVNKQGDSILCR
Calls only; i = inactive; + = active, no number. This is a subset. The share of hits here may be higher or lower than overall.

#	SMILES	ID4 binder
1	Cc1ccc(-c2cnc3c(c2)C(=O)N([C@@H](C)CO)C[C@H](C)[C@@H](CN(C)C(=O)c2cccc(F)c2)O3)cc1	i
2	CN(CC(=O)O)c1ncc(-c2nnnn2-c2ccccc2)c(-c2ccccc2Cl)n1	i
3	Cc1noc(C)c1NC(=O)N(C)C[C@H]1Oc2ncc(/C=C/c3ccccc3)cc2C(=O)N([C@@H](C)CO)C[C@@H]1C	i
4	COc1ccc(NC(=O)N(C)C[C@H]2OCc3ccccc3-c3c(n(C)c4ccccc34)C(=O)N([C@H](C)CO)C[C@H]2C)c(OC)c1	i
5	O=C(C[C@H]1C[C@@H]2c3cc(NC(=O)c4cccnc4)ccc3O[C@@H]2[C@@H](CO)O1)NCc1ccc(Oc2ccccc2)cc1	i
6	CC(C)NC(=O)N(C)C[C@H]1Oc2ncc(C#CC3CC3)cc2C(=O)N([C@H](C)CO)C[C@H]1C	i
7	C=CCn1c(SCc2nc3ccccc3[nH]2)nnc1-c1cccc(C)c1	i
8	Cc1ccc(-c2cnc3c(c2)C(=O)N([C@H](C)CO)C[C@H](C)[C@@H](CN(C)C)O3)cc1	i
9	COc1ccc(C(=O)CSc2ncn(-c3ccccc3)n2)cc1OC	i
10	Cc1ccc(C2=NN(C(=O)CCC(=O)O)C(c3ccc(F)cc3)C2)cc1 (stereo not drawn)	i
11	COC(=O)c1sccc1NC(=O)CN1c2cccc3cccc(c23)S1(=O)=O	i
12	CC(C)CC#Cc1cnc2c(c1)C(=O)N([C@H](C)CO)C[C@H](C)[C@@H](CN(C)CC1CCOCC1)O2	i
13	C[C@@H]1CN([C@H](C)CO)C(=O)c2cc(C3=CCCCC3)cnc2O[C@H]1CN(C)C(=O)c1cccc(F)c1	i
14	CSc1ccccc1NC(=O)CN(c1cccc(C)c1)S(C)(=O)=O	i
15	Cc1c(Br)c([N+](=O)[O-])nn1CC(=O)Nc1cccc(C(F)(F)F)c1	i
16	COc1ccccc1C#Cc1cnc2c(c1)C(=O)N([C@@H](C)CO)C[C@H](C)[C@@H](CN(C)C)O2	i
17	COc1ccc(-c2nc(SCC(=O)Nc3ccc(Br)c(C)c3C)n[nH]2)cc1	i
18	COC(OC)C1(C)NC(=O)c2ccccc2N1 (stereo not drawn)	i
19	C[C@@H]1CN([C@@H](C)CO)C(=O)c2cc(NC(=O)C3CCCCC3)ccc2O[C@@H]1CN(C)CC1CC1	i
20	Cc1ccc(NC(=O)C(=O)NCc2ccccn2)cc1C	i
21	C/C=C/c1ccc2c(c1)O[C@@H](CN(C)Cc1cccc(F)c1)[C@H](C)CN([C@H](C)CO)S2(=O)=O	i
22	CO[C@H](CN(C)Cc1ccc(-c2ccccn2)cc1)[C@@H](C)CN(C(=O)Nc1ccc(F)cc1)[C@@H](C)CO	i
23	C[C@@H]1CN([C@@H](C)CO)C(=O)c2cc(Br)cnc2O[C@H]1CN(C)Cc1ccccn1	i
24	CO[C@H](CN(C)S(=O)(=O)c1cccc(Cl)c1)[C@H](C)CN([C@@H](C)CO)S(=O)(=O)c1ccc(Cl)cc1	i
25	CNC(=S)N1N=C(c2ccccc2)CC1c1cc2ccc(C)cc2nc1Cl (stereo not drawn)	i

Other compounds:
#	SMILES	ID4 binder
26	C[C@@H]1CN([C@@H](C)CO)C(=O)c2cc(C#CCN(C)C)cnc2O[C@@H]1CN(C)Cc1ccccc1	i
27	Cc1nnc(SCC(=O)Nc2sc3c(c2C#N)CCC(C(C)(C)C)C3)s1 (stereo not drawn)	i
28	O=C(Cn1c(C(F)(F)F)nc2ccccc21)NCCN1CCOCC1	i
29	Cc1c(NC(=O)COc2cccc3ccccc23)cccc1C(=O)O	i
30	N#C[C@H]1[C@@H](c2ccc(C#Cc3ccccc3F)cc2)[C@@H](CO)N1C(=O)C1CCCCC1	i
31	Cn1c(SCC(=O)Nc2cc(=O)n(C)c(=O)n2C)nc2sc3c(c2c1=O)CCC3	i
32	Cc1cc(Cl)c(S(=O)(=O)Nc2cc(Cl)ccc2Cl)cc1OCC(N)=O	i
33	CC(C)(C)c1ccc(C(=O)Nc2cccc(NC(=O)COc3ccccc3Cl)c2)cc1	i
34	O=C(C[C@@H]1C=C[C@@H](NC(=O)C2CC2)[C@H](CO)O1)NC1CCC1	i
35	C[C@H](O)C#Cc1ccc2c(c1)O[C@@H](CN(C)C(=O)CN(C)C)[C@H](C)CN([C@H](C)CO)S2(=O)=O	i
36	COc1cc2c(=O)oc(-c3c(-c4c(F)cccc4Cl)noc3C)nc2c(OC)c1OC	i
37	Cc1ccc(NC(=O)CSC2CC(=O)N(c3ccc(Br)cc3)C2=O)cc1Cl (stereo not drawn)	i
38	CCCN(C)C[C@@H]1Oc2cc(C3=CCCC3)ccc2S(=O)(=O)N([C@@H](C)CO)C[C@@H]1C	i
39	O=C(CSc1ncn[nH]1)Nc1ccc(I)cc1	i
40	OCCCn1c(-c2ccc(Cl)cc2)cn2c3ccccc3nc12	+
41	C[C@@H]1CN([C@@H](C)CO)C(=O)c2cc(C#CC3CCCC3)cnc2O[C@H]1CN(C)C(=O)C1CC1	i
42	O=S(=O)(c1ccccc1)c1nc(-c2ccco2)oc1NCC1CCCO1 (stereo not drawn)	i
43	Cc1cc(C(F)(F)F)nn1CCCNC(=O)c1cc(-c2ccccc2)nc2ccccc12	i
44	C[C@H](CO)N1C[C@H](C)[C@@H](CN(C)CC2CCCC2)Oc2ncc(-c3cccc(F)c3)cc2C1=O	i
45	COc1cc(NC(=O)CCn2cnc3ccccc3c2=O)c(OC)cc1Cl	i
46	Cn1c2ccccc2c2nnc(SCC(=O)Nc3ccc(Cl)cc3)nc21	i
47	C[C@@H]1CN([C@H](C)CO)C(=O)c2cc(C#CC3CC3)cnc2O[C@@H]1CN(C)C(=O)c1ccccc1	i
48	CC(C)CC#Cc1cnc2c(c1)C(=O)N([C@H](C)CO)C[C@H](C)[C@@H](CN(C)C(=O)Nc1ccccc1F)O2	i
49	C[C@H](CO)N1C[C@H](C)[C@H](CN(C)C(=O)c2ccc3c(c2)OCO3)Oc2ncc(C3=CCCCC3)cc2C1=O	i
50	CC(=O)N(C)C[C@H]1Oc2ncc(-c3ccc(F)cc3)cc2C(=O)N([C@@H](C)CO)C[C@@H]1C	i

Next section.
#	SMILES	ID4 binder
51	O=C(N[C@H]1c2ccccc2C[C@H]1O)C1=C[C@H](c2coc3ccccc3c2=O)C[C@H](OCCCCO)O1	i
52	FC(F)(F)c1cccc2c1[nH]c1nc3ccccc3nc12	i
53	COc1ccc(CNC(=O)N(C)C[C@H]2OCc3ccccc3-c3ccccc3C(=O)N([C@H](C)CO)C[C@@H]2C)cc1	i
54	O=C(O)CC(CC(=O)Nc1cc(C(F)(F)F)cc(C(F)(F)F)c1)c1ccc(Cl)cc1Cl (stereo not drawn)	i
55	CN(C)C(=O)C[C@H]1C=C[C@H](NC(=O)c2ccc(F)cc2)[C@@H](CO)O1	i
56	C[C@H](CO)N1C[C@H](C)[C@H](CN(C)Cc2ccccc2)Oc2ccc(NC(=O)C3CC3)cc2C1=O	i
57	C[C@H]1CN([C@@H](C)CO)S(=O)(=O)c2ccc(C3=CCCCC3)cc2O[C@@H]1CN(C)S(=O)(=O)c1cn(C)cn1	i
58	CC(C)c1cn(CC[C@H]2CC[C@H](NC(=O)C3CCCCC3)[C@H](CO)O2)nn1	i
59	O=S(=O)(CCc1nnc(-c2ccccc2)o1)c1ccc(Cl)cc1	i
60	CS(=O)(=O)N(CC(=O)N1CCC(C(N)=O)CC1)c1cc(Cl)c(Cl)cc1Cl	i
61	C[C@@H]1CN([C@@H](C)CO)C(=O)c2cc(/C=C/c3ccccc3)cnc2O[C@H]1CN(C)S(C)(=O)=O	i
62	COc1ccc(N(CC(=O)Nc2cccc(Br)c2)S(C)(=O)=O)cc1	i
63	O=C(CSc1nnc(-c2ccccn2)n1-c1ccccc1)Nc1ccc(Br)cc1	i
64	Cc1cccc(-c2nnc(SCC(=O)Nc3cccc(C)c3C)n2C)c1	i
65	O=C(CSc1n[nH]c(-c2ccco2)n1)Nc1ccc(Br)cc1	i
66	C[C@H](CO)N1C[C@H](C)[C@H](CN(C)C)Oc2ncc(C#Cc3ccccc3)cc2C1=O	i
67	CCC(=O)N[C@H]1CC[C@H](CCn2cc(C3CC3)nn2)O[C@H]1CO	i
68	O=C(C[C@H]1C[C@H]2c3cc(NC(=O)CC4CC4)ccc3O[C@H]2[C@H](CO)O1)NCc1cccnc1	i
69	Cc1ccccc1-c1ccc2c(c1)O[C@H](CN(C)CC1CC1)[C@H](C)CN([C@H](C)CO)S2(=O)=O	i
70	OC(COc1ccc2c(c1)CCC2)Cn1cnc2ccccc21 (stereo not drawn)	i
71	COc1ccc(-c2nc(SCC(=O)Nc3ccc(Br)c(Cl)c3)n[nH]2)cc1	i
72	O=C(C[C@H]1C=C[C@@H](NC(=O)c2ccc(F)cc2)[C@@H](CO)O1)NCCc1ccccc1	i
73	Cc1ccc(S(=O)(=O)N(C(=O)C2CCCCC2)c2ccc3oc(=O)sc3c2)c(C)c1	i
74	CC(C)NC(=O)N(C)C[C@H]1Oc2ncc(C#CCc3ccccc3)cc2C(=O)N([C@@H](C)CO)C[C@H]1C	i
75	CCCN(C)C[C@H]1Oc2cc(C#Cc3ccccc3F)ccc2S(=O)(=O)N([C@H](C)CO)C[C@H]1C	i

The list goes on:
#	SMILES	ID4 binder
76	O=C(Oc1cccc2ccccc12)c1ccccc1	i
77	C[C@H](CO)N1C[C@H](C)[C@H](CN(C)C(=O)c2cccc(F)c2)Oc2ncc(C#CCN(C)C)cc2C1=O	i
78	CC(C)C#Cc1cnc2c(c1)C(=O)N([C@H](C)CO)C[C@H](C)[C@H](CN(C)Cc1cccc(F)c1)O2	i
79	C[C@H]1CN([C@@H](C)CO)S(=O)(=O)c2ccc(C#Cc3ccc(F)cc3)cc2O[C@H]1CN(C)C	i
80	O=C(C[C@@H]1C=C[C@H](NC(=O)C2CCC2)[C@@H](CO)O1)NC1CCC1	i
81	C[C@@H]1CN([C@@H](C)CO)S(=O)(=O)c2ccc(C3=CCCCC3)cc2O[C@H]1CN(C)CC1CC1	i
82	COc1cccc(S(=O)(=O)Nc2ccc3c(c2)[C@@H]2C[C@H](CC(=O)N4CCCCC4)O[C@@H](CO)[C@@H]2O3)c1	i
83	CCN(CC(=O)Nc1ccc(C(N)=O)cc1)S(=O)(=O)c1ccc(Br)cc1	i
84	COc1ccc(S(=O)(=O)N(C)CC(=O)Nc2ccc(C(F)(F)F)cc2)cc1Cl	i
85	O=C(O)C1CC=CCC1C(=O)Nc1ccc(Cc2ccncc2)cc1 (stereo not drawn)	i
86	COc1ccccc1NC(=O)CCc1nc(-c2ccc(Cl)cc2)no1	i
87	CCOC(=O)c1cc(NC(=O)CN2C(=O)COc3ccc(Cl)cc32)ccc1Cl	i
88	Cc1ccc(S(=O)(=O)NC(C)C(=O)Nc2ccc3c(c2)OCCO3)cc1 (stereo not drawn)	i
89	COc1ccc(NC(=O)O[C@@H](c2ccc(OCCO)cc2)[C@@H](C)CCO)cc1	i
90	COc1cc(NS(=O)(=O)c2ccc(NC(=O)c3cccc4ccccc34)cc2)ncn1	i
91	CCCC#Cc1cnc2c(c1)C(=O)N([C@H](C)CO)C[C@H](C)[C@H](CN(C)C(=O)c1cccc(F)c1)O2	i
92	C[C@H](CO)N1C[C@H](C)[C@H](CN(C)Cc2ccccc2)Oc2ncc(C#Cc3ccccn3)cc2C1=O	i
93	CS(=O)(=O)N(CC(=O)Nc1ccc(Cl)c(C(F)(F)F)c1)c1cccc(Br)c1	i
94	Cc1ccc(NC(=O)CSc2nc(C)cc(C(F)(F)F)n2)cc1	i
95	Cc1ccc(NC(=O)CC2NCCNC2=O)cc1 (stereo not drawn)	i
96	Cc1cc(=O)[nH]c(SCC(=O)N2CCC(C(N)=O)CC2)n1	i
97	O=C(CCN1C(=O)c2ccccc2S1(=O)=O)Nc1ccc(Oc2ccccc2)cc1	i
98	C/C=C/c1cnc2c(c1)C(=O)N([C@@H](C)CO)C[C@H](C)[C@@H](CN(C)C(=O)Cc1ccccc1)O2	i
99	CN(CC(=O)Nc1ccccc1C#N)S(=O)(=O)c1ccc(Br)cc1	i
100	C[C@@H]1CN([C@H](C)CO)C(=O)c2cc(-c3ccccc3F)cnc2O[C@H]1CN(C)C(=O)CN(C)C	i

(listing goes on)
#	SMILES	ID4 binder
101	O=C1CN(/N=C/c2ccc(-c3ccc([N+](=O)[O-])cc3)o2)C(=O)N1	i
102	COC(=O)Nc1nc2ccc(C(=O)c3cccs3)cc2[nH]1	i
103	COc1ccc(NC(=O)CN(C)S(=O)(=O)c2ccc(Br)cc2)c([N+](=O)[O-])c1	i
104	O=C(Cn1cnc2ccccc2c1=O)Nc1ccc2c(c1)oc1ccccc12	i
105	O=C(CSc1nc2ccc([N+](=O)[O-])cc2[nH]1)Nc1cc(C(F)(F)F)cc(C(F)(F)F)c1	i
106	COc1ccc(-c2ccc3c(c2)O[C@@H](CN(C)C)[C@@H](C)CN([C@@H](C)CO)S3(=O)=O)cc1	i
107	O=C(NCCCN1CCCC1)Nc1ccccc1[N+](=O)[O-]	i
